PrP UTR inh – inhibition of PrP 5' UTR reporter expression | cell-based PrP 5' UTR mRNA reporter, plate reader | inhibition, % (concentration not given with the values) | 340,000 compounds, 0.35% hits;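 active = every replicate at 50% or more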;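 also: 0 = median of the neutral control wells; tested in H4 reporter cells; numbers are from one replicate; inactives centre near -14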
RN4220 kill – growth inhibition of S. aureus RN4220, primary screen, OD600; 16 h; inhibition, % (test concentration not listed); 330,000 compounds, 0.33% hits;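 active = z-score of -3 or lower and OD600 up to 0.18 on both plates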;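 also: plate controls were untreated cells for no effect and reference antibiotic for full effect; stock transfer was 100 nL into about 80 µL; one replicate is shown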
Bead autofluor – counter-screen for toxin protease inhibitors: compound fluorescence; 360,000 compounds, 3.1% hits; fluorescence intensity (no concentration beside the values); compound autofluorescence counterscreen, microsphere flow cytometry; active compounds read high; AID 624483;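 active = at least 3 SD above the mean of all compounds, about 16000 in these data; inconclusive = too few beads counted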;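 also: 100 nL of 1 mM stock went into each well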
Mtb hypoxia inh – PubChem AID 1159583 | M. tuberculosis hypoxia-regulated fluorescent reporter, fluorescence | fluorescence inhibition, % (no concentration beside the values) | 300,000 compounds, 0.1% hits;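 active = 35 to 45% if threefold the growth effect, above 45% if 1.5-fold the growth effect; inactive = the rest, general growth blockers included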;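 also: wells of about 50 µL received 100 nL stock; 0% = vehicle wells and 100% = reference inhibitor wells; whole bacteria with a GFP reporter of the hypoxia response; strong numbers were not always called active; many hits fall short of the cut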
Sa ugtP lethal – growth inhibition of ugtP-null S. aureus, primary screen, RN4220 ugtP deletion, OD600; 330,000 compounds, 0.54% hits; growth inhibition, % (concentration not given with the values); 16 h; some inactives read as strong as hits;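 active = z-score under -3 and OD600 up to 0.15 on both plates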;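 also: plate controls were untreated wells for no effect and antibiotic for full effect; wells of about 80 µL received 100 nL stock; the first replicate is given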
BJeLR lethal – MLPCN primary cell-based screen for lethality selective to Ras in HRASV12 cells; 300,000 compounds, 0.17% hits; inhibition, % (no concentration beside the values); BJeLR (HRASV12) viability, CellTiter-Glo ATP luminescence, 48 h; reference of the scale not given here;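 active = replicate mean above 50%; inconclusive = above 50% but judged a plate artefact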;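 also: 50 nL library stock added to about 25 µL; numbers are from one replicate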
Mtb hypoxia inh growth – also measured in Mtb hypoxia inh; calls as there; growth inhibition, %; measured here: M. tuberculosis growth (absorbance);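 0% = vehicle and 100% = reference antibiotic; read after six days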
An asterisk follows results filed as active; ? = inconclusive; · = not tested or not shown; & = joins results of further samples.

1	CCCCC(=O)N/N=C/c1c(O)n(CC)c(=S)n(CC)c1=O
2	CN1C(C(=O)NCc2ccc(OC(F)(F)F)cc2)CC2Cn3c(nc4ccccc43)C21 (configuration not stated)
3	COc1ccc(Nc2nnc(-c3ccccc3)c3ccccc23)cc1C(=O)N1CCCCC1
4	COc1ccccc1CCNC1CCC(C(C)(C)C)CC1 (configuration not stated)
5	O=C(Cn1nnc(-c2ccccc2)n1)NCc1ccccc1
6	CCOc1ccccc1N1CCN(c2nc(N)c(C#N)c(CC#N)c2C#N)CC1
7	COC(=O)c1[nH]c2ccc(F)cc2c1NC(=O)C1=COCCO1
8	O=C(COC(=O)c1ccc2[nH]c3c(c2c1)CCCC3)Nc1ccccc1Cl
9	COc1ccc(-c2cc(OC)c3c(C)oc(C)c3c(=O)c2)cc1OC
10	O=C(CN1C(=O)c2ccccc2S1(=O)=O)Nc1ccon1

Compound	1	2	3	4	5	6	7	8	9	10
PrP UTR inh	1	13	-17	-6	-28	-4	-8&-30	-20	-13	-1
RN4220 kill	2.5	10	3.2	4.1	2.9	4.0	-1.3	-2.4	1.4	·
Bead autofluor	2196	3791	2538	10965	7816	3611	2324	4978	12287	?
Mtb hypoxia inh	2	0	6	-3	9	11	·	-12	-1	·
Mtb hypoxia inh growth	-7	10	15	6	6	-1	·	-18	-9	·
Sa ugtP lethal	4	2	-1	-6	9	-5	-1	4	-10	·
BJeLR lethal	5	-6	0	-7	2	1	-5	9	15	3

11	CCCOc1ccc(C2C(C(=O)c3ccc(C)o3)=C(O)C(=O)N2CCCn2ccnc2)cc1 (configuration not stated)
12	COCCCNc1c2c(nc3nnnn13)CCCC2
13	COCC(=O)Oc1c(S(=O)(=O)c2ccc(C)cc2)c(C)nn1C(C)(C)C
14	N#C/C(=C(/O)COC(=O)CCC1CCCCC1)c1nc2ccccc2[nH]1
15	O=C(C1CCCN(Cc2ccccc2C(F)(F)F)C1)N1CCCCC1 (configuration not stated)
16	Cc1nc(-c2ccccc2)sc1-c1ccnn1C
17	CCOc1ccccc1N1C(=O)CC(Sc2ncccc2C(=O)O)C1=O (configuration not stated)
18	CCOC(=O)N1CCC(N(CCN(C)C)C(=S)Nc2cc(Cl)cc(Cl)c2)CC1
19	CC(=O)N1CCCc2cc(S(=O)(=O)Nc3cccc(C)c3C)ccc21
20	CCOc1ccc(-c2cc(C(=O)O)c3ccccc3n2)c(OCC)c1

Compound	11	12	13	14	15	16	17	18	19	20
PrP UTR inh	-1	-13	7	1	-63	-77	-38	-2	5	-29
RN4220 kill	-1.3	4.6	3.9	·	8.8	2.0	6.0	6.9	5.5	2.8
Bead autofluor	4222	3150	3857	4472	2801	4359	7925	4263	5620	15810
Mtb hypoxia inh	-9	7	-1	·	19	10	1	8	-4	0
Mtb hypoxia inh growth	5	6	7	·	22	12	-2	2	9	-5
Sa ugtP lethal	1	15	9	·	6	-12	4	4	-5	8
BJeLR lethal	-14	8	-12	-8	5	4	-6	7	3	9

21	CCN(CC)CCCNC(=O)CNC(=O)c1nn(-c2ccc(OC)c(OC)c2)c(=O)c2ccccc12
22	N/C(=N\OC(=O)c1ccccc1Cl)c1cccnc1
23	Cc1cc(OC(=O)c2cc(Br)ccc2Cl)c([N+](=O)[O-])c(=O)[nH]1
24	Cn1c(NC(=O)c2ccc(S(=O)(=O)N3CCOCC3)cc2)cc(=O)n(C)c1=O
25	CCN(C(=O)CSc1nnc(-c2ccc(C)cc2)n1N)c1c(N)n(Cc2ccccc2)c(=O)[nH]c1=O
26	COc1ccccc1-c1nc2cc(Cl)ccc2c(=O)n1O
27	O=C(O)COc1ccccc1/C=N/Nc1ccc(S(=O)(=O)N2CCOCC2)cc1[N+](=O)[O-]
28	CC(=O)c1c(C)nc(C)nc1NC(=O)C(C)C
29	CSCC(C)N1CCC(n2nccc2NC(=O)CCOc2ccccc2)CC1 (configuration not stated)
30	CNc1nc(SC)nc2ccccc12

Compound	21	22	23	24	25	26	27	28	29	30
PrP UTR inh	-25	-62	-6	-8	-18	·	-18	-18	-2	-9
RN4220 kill	1.4	·	3.2	2.4	3.5	1.8	·	0.4	0.7	6.6
Bead autofluor	3801	2822	6266	1981	6068	3724	4197	4236	5924	4117
Mtb hypoxia inh	-6	·	10	2	1	2	·	·	8	·
Mtb hypoxia inh growth	2	·	1	0	2	3	·	·	7	·
Sa ugtP lethal	1	·	11	4	-4	12	·	7	15	7
BJeLR lethal	1	-1	-10	-12	·	5	4	3	3	3

31	O=C(CCCc1nc(-c2ccc(Cl)cc2)no1)NCC1CCCO1 (configuration not stated)
32	COC(=O)c1c(NC(=O)CN2CCN(C(=O)c3ccco3)CC2)c2cc(C)ccc2n1C
33	Cc1ccc(-c2cc(C(=O)N3CCCCC3)c3ccccc3n2)cc1C
34	CC(=O)NS(=O)(=O)c1ccc(NS(=O)(=O)c2ccc3ccccc3c2)cc1
35	O=C1CC2(CCN(C(=O)c3ccccc3F)CC2)Oc2ccccc21
36	CC(=O)c1cc2c(cc1NS(=O)(=O)c1ccccc1)OCO2
37	CC(=O)Nc1ccc(NC(=O)C(C)N(C)CC(=O)Nc2ccccc2Br)cc1 (configuration not stated)
38	COCCSc1nnc(NC(=O)Cc2ccccc2OC)s1
39	CCOC(=O)C1(C)NC(c2ccco2)C2C(=O)N(CC)C(=O)C21 (configuration not stated)
40	Nc1ccc(C(=O)OCC(=O)NC2CCCc3ccccc32)cc1[N+](=O)[O-] (configuration not stated)

Compound	31	32	33	34	35	36	37	38	39	40
PrP UTR inh	-4	-14	-7	-20	3	-19	-8	-20	-20	-23
RN4220 kill	2.1	3.9	5.1	1.9	3.5	4.0	3.4	3.3	1.2	-11
Bead autofluor	5661	7303	5204	3655	5874	20902*	3132	?	4398	2998
Mtb hypoxia inh	1	9	7	4	6	7	-3	1	13	·
Mtb hypoxia inh growth	13	10	6	8	6	5	-4	0	10	·
Sa ugtP lethal	12	5	9	10	9	0	5	2	8	5
BJeLR lethal	6	-3	4	-3	1	3	0	3	-8	-6

41	COc1ccc(S(=O)(=O)Nc2cc(C)ccn2)cc1OC
42	COc1ccc(S(=O)(=O)NCC(c2cccnc2)N2CCN(c3ccc(F)cc3)CC2)cc1C (configuration not stated)
43	Cc1cnc(NC(=O)c2ccc(OCC3CCCO3)cc2)s1 (configuration not stated)
44	CCOP(=S)(OCC)SCOC(=O)NCC(=O)OC
45	O=C(CN1CCN(Cc2ccccc2F)C1=O)NCc1ccco1
46	CCOc1ccc(CNc2nnnn2C)cc1OC
47	Cc1ccc2ncccc2c1[N+](=O)[O-]
48	Cc1cccc(NC(=O)Cn2nc(C(F)(F)F)cc2C2CC2)c1
49	O=c1[nH]c(SCc2ccc([N+](=O)[O-])cc2)nc2[nH]ncc12
50	O=C(c1ccco1)N1CCCN(C(=O)c2ccco2)CC1

Compound	41	42	43	44	45	46	47	48	49	50
PrP UTR inh	-4	52*	31	-9	-25	-18	-10	-28	-35	-29
RN4220 kill	3.3	-18	6.2	-0.7	3.2	2.2	0.6	-2.5	4.4	4.7
Bead autofluor	10253	2889	4182	2453	3689	3390	2484	10572	2156	23373*
Mtb hypoxia inh	-4	-5	5	·	6	8	7	-1	13	11
Mtb hypoxia inh growth	-4	3	2	·	5	6	15	23	14	6
Sa ugtP lethal	7	-10	9	-1	0	7	15	-10	15	3
BJeLR lethal	2	-7	2	-9	-6	4	-6	4	8	7

51	Cc1ccc(C(=O)COC(=O)CCC(=O)NC2CCCCC2)cc1[N+](=O)[O-]
52	CCOC(=O)c1ccc(NCc2ccc3c(c2)OCO3)cc1
53	O=C(O)C(CO)N=Cc1c(O)c2ccccc2oc1=O (configuration not stated)
54	CCCCCOc1ccc(/C=C/c2c([N+](=O)[O-])c(=O)n(C)c(=O)n2C)cc1
55	O=C(CC1C[C@H](C(=O)N2CCOCC2)[C@@]2(CCC3CCCC3)c3[nH]c4ccccc4c3CCN2C1=O)NCc1cccc(C(F)(F)F)c1 (some centres not stated)
56	COc1cc2c(c(OC)c1OC)-c1ccc(O)cc1C(NC(C)=O)CC2 (configuration not stated)
57	Cc1cc(C)cc(OCCCCCNCCO)c1
58	O=C(c1ccco1)N1CCN(CC(O)Cn2c3ccccc3c3ccccc32)CC1 (configuration not stated)
59	CC(=O)c1ccc(N2CCN(C(=O)C3CCCN3S(=O)(=O)c3cccc4nsnc34)CC2)cc1 (configuration not stated)
60	COC(=O)C(Cc1ccccc1)NS(=O)(=O)NC(Cc1ccccc1)C(=O)OC (configuration not stated)

Compound	51	52	53	54	55	56	57	58	59	60
PrP UTR inh	5	-26	-3	5	-20	73*	·	-23	-12	·
RN4220 kill	6.2	6.6	7.6	2.0	-6.0	2.5&4.2	2.5	0.4	0.1	3.9
Bead autofluor	2061	8077	4072	3595	3541	3828	6114	3841	5845	·
Mtb hypoxia inh	11	19	4	1	-6	-1&9	10	-80	-2	-4
Mtb hypoxia inh growth	8	14	8	10	3	-3&9	8	12	9	1
Sa ugtP lethal	11	5	7	77	-16	-1&3	7	-7	4	-9
BJeLR lethal	6	1	15	-5	·	·	·	-9	2	·

Just Bead autofluor, Mtb hypoxia inh growth and Sa ugtP lethal (six entries from above):
cpd	Structure	Bead autofluor	Mtb hypoxia inh growth	Sa ugtP lethal
52	CCOC(=O)c1ccc(NCc2ccc3c(c2)OCO3)cc1	8077	14	5
53	O=C(O)C(CO)N=Cc1c(O)c2ccccc2oc1=O (configuration not stated)	4072	8	7
54	CCCCCOc1ccc(/C=C/c2c([N+](=O)[O-])c(=O)n(C)c(=O)n2C)cc1	3595	10	77
55	O=C(CC1C[C@H](C(=O)N2CCOCC2)[C@@]2(CCC3CCCC3)c3[nH]c4ccccc4c3CCN2C1=O)NCc1cccc(C(F)(F)F)c1 (some centres not stated)	3541	3	-16
56	COc1cc2c(c(OC)c1OC)-c1ccc(O)cc1C(NC(C)=O)CC2 (configuration not stated)	3828	-3&9	-1&3
57	Cc1cc(C)cc(OCCCCCNCCO)c1	6114	8	7

The list goes on.
61	CCCCCn1c(=N)c(S(=O)(=O)c2ccc(Cl)cc2)cc2c(=O)n3cccc(C)c3nc21
62	COc1ccc(N(C)C(=O)c2cnc(N3CCN(c4ncccn4)CC3)c3ccccc23)cc1
63	CCS(=O)(=O)N1CCN(Cc2c[nH]c3ccccc23)CC1
64	COc1ccccc1-c1nnc(SCC(=O)c2ccc(C3CCCCC3)cc2)n1Cc1ccco1
65	O=C(O)CSc1nnc(Cn2cnc3ccccc32)n1CCc1ccccc1
66	C=CCNC(=O)c1ccc(N(Cc2ccccc2)S(C)(=O)=O)cc1
67	CCOc1ccccc1NC(=O)C1=C(C)NC(=O)NC1c1cccs1 (configuration not stated)
68	CN1C(=O)C(CC(=O)O)SC1=NN=Cc1ccc(O)cc1O (configuration not stated)
69	COc1ccc(C=NOCC(=O)Nc2cc(C)on2)cc1OC
70	O=C(COc1ccc(Cl)cc1)NC1CN2CCC1CC2 (configuration not stated)
71	Cc1ccc(NC2CCCN(C(=O)c3ccc(F)cc3)C2)cc1C (configuration not stated)

Compound	61	62	63	64	65	66	67	68	69	70	71
PrP UTR inh	-3	-2	-11	13	-24	15	-23	·	·	-10	3
RN4220 kill	2.9	0.6	3.6	-3.2	1.5	-0.4	3.4	2.2	2.6	1.6	6.4
Bead autofluor	2983	10156	3845	3297	9374	3222	4297	·	·	·	4448
Mtb hypoxia inh	8	-7	12	·	4	-6	9	13	-5	5	6
Mtb hypoxia inh growth	3	5	4	·	9	-6	0	2	-4	3	34
Sa ugtP lethal	9	-7	5	-25	-3	-3	8	4	2	8	6
BJeLR lethal	-2	-3	-15	5	-17	-10	22	·	·	9	-4

Fetched one by one from above (4):
62	COc1ccc(N(C)C(=O)c2cnc(N3CCN(c4ncccn4)CC3)c3ccccc23)cc1
67	CCOc1ccccc1NC(=O)C1=C(C)NC(=O)NC1c1cccs1 (configuration not stated)
63	CCS(=O)(=O)N1CCN(Cc2c[nH]c3ccccc23)CC1
65	O=C(O)CSc1nnc(Cn2cnc3ccccc32)n1CCc1ccccc1

Compound	62	67	63	65
PrP UTR inh	-2	-23	-11	-24
RN4220 kill	0.6	3.4	3.6	1.5
Bead autofluor	10156	4297	3845	9374
Mtb hypoxia inh	-7	9	12	4
Mtb hypoxia inh growth	5	0	4	9
Sa ugtP lethal	-7	8	5	-3
BJeLR lethal	-3	22	-15	-17

Screens (PubChem)
